Screening results as filed in PubChem.
Vif TR-FRET: inhibitors of Vif binding to APOBEC3G peptide, primary screen, biochemical, TR-FRET, GST-Vif 1-94, biotin-A3G peptide, dose response retest (AID 1117319) | TR-FRET GST-Vif / biotin-A3G peptide binding; higher % means a stronger effect; test concentration not given here; strong numbers were not always called active | inhibition, %; hits with a dose series show IC50 in µM | 0.57% of 260,000 active;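 active = above the screen mean plus three standard deviations and confirmed in dose response; inconclusive = results disagree or hit not tested in dose response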;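 note: Vif residues 1-94 fused to GST binding biotinylated APOBEC3G peptide 110-148; 0% = full assay without inhibitor and 100% = GST in place of GST-Vif; retest series ran down from 100 µM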
T cruzi inh: inhibitors of intracellular T. cruzi growth, primary screen, luminescence, NIH3T3 host cells. T. cruzi beta-gal in NIH3T3, 90 h. inhibition, % (test concentration not listed). 1.4% of 300,000 active;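 active = mean inhibition across valid replicates above about 55%, limit read from the data; inconclusive = mean below that limit but half or more replicates reach it; inactive = mean below it, under half of replicates reach it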;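 note: signal also drops with host cell toxicity which is not excluded here; 0% = plate median of DMSO wells and 100% = zero luminescence signal; higher percent means less beta-gal luminescence so fewer parasites; stock transfer was 50 nL into about 50 µL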
Calb FLC: C. albicans growth inhibition with fluconazole, primary screen, CaCi-2 strain, Alamar Blue fluorescence; 0.57% of 300,000 active; growth inhibition, % (no concentration beside the values); C. albicans CaCi-2 (fluconazole-resistant clinical isolate) + fluconazole, 48 h;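 active = most replicates above 75%; inconclusive = exactly half above 75%; inactive = most below 75%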;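 note: all wells also contain fluconazole at 8 µg/ml as a sub-toxic cotreatment; 0% = median of DMSO wells and 100% = median of geldanamycin control wells; wells of about 8 µL received 7.5 nL stock; the first replicate is given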
Bfl-1 A1 inh: caspase 3/7 activation in MEF A1-2A-BIM cells, primary screen, A1 inhibitor project, cell-based, luminescence, HTS; 0.066% of 330,000 active; Caspase-Glo 3/7 luminescence, 3 h; percent of clofoctol response, vehicle zero; caspase activation, % (test concentration not listed); AID 2462, 2010;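 active = over half of replicate activation scores above 10%, or exactly half above 10 with the replicate mean above 10; inconclusive = replicate mean below 10 yet half the replicates above 10; inactive = over half of replicates below 10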;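 note: wells of about 30 µL received 50 nL stock; many hits fall short of the cut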
Ecoli rRNA inh: reduced GFP signal of wild-type E. coli, primary screen, bacterial rRNA inhibitor project, GFP/RFP fluorescence, OD600, single point; E. coli WT GFP vs humanized-ribosome RFP mutants, 24 h; stronger effect = lower value; DMSO median 0, no signal -100; GFP signal change (wild-type ribosome), % (test concentration not listed); 1.6% of 350,000 active; AID 720706, 2013;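 active = significant combined selectivity score with lowered wild-type GFP, culture density cut under 30%, mutant RFP and density less affected; inactive = any of these conditions unmet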; note: one replicate is shown; some compounds called inactive have numbers as strong as hits
RanGTP-Imp inh: inhibitors of RanGTP-importin-beta interaction, primary screen, biochemical, FRET, CFP-Ran, YFP-importin-beta, homogeneous; inhibition, % (no concentration beside the values); Ran GTPase (GTP-bound) - importin-beta complex; 1.1% of 300,000 active; cell-free CFP-Ran/YFP-importin-beta FRET ratio;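 active = most replicates above 15%; inconclusive = exactly half above 15%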;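 note: 0% = DMSO wells and 100% = Ran loaded with GDP instead of GTP; wells of about 40 µL received 100 nL stock; the first replicate is given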
Beta apoptosis: inhibitors of cytokine-induced beta cell apoptosis, primary screen, luminescence. protection from apoptosis, % (no concentration beside the values). 0.8% of 300,000 active. INS-1E cytokine-induced death, ATP luminescence, 48 h; percent of positive-control rescue, neutral wells zero. AID 435005, 2010;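 active = all replicates at 75% or more, or half of them and the mean; inconclusive = half reach 75% but not the mean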;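 note: 0% = cytokine-treated negative control wells and 100% = positive control rescue; higher means more ATP so stronger rescue from cytokine killing; wells of about 40 µL received 100 nL stock; the first replicate is given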
AF4-AF9 inh: inhibitors of AF4 peptide binding to AF9, primary screen, biochemical, AlphaScreen, biotin-AF4 peptide, FLAG-AF9, single point | inhibition, % at 10 µM | 0.47% of 350,000 active | AID 651704, 2012;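 active = every replicate reaching a set inhibition limit, whatever the replicate mean, cut at about 25% in these data; inconclusive = mean inhibition reaches that limit but some replicates miss it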;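 note: 0% = plate neutral control median and 100% = total signal loss; the record names both 10 and 1 µM as test concentration; the first replicate is given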
Target sequence (P42568 whole entry, looked up): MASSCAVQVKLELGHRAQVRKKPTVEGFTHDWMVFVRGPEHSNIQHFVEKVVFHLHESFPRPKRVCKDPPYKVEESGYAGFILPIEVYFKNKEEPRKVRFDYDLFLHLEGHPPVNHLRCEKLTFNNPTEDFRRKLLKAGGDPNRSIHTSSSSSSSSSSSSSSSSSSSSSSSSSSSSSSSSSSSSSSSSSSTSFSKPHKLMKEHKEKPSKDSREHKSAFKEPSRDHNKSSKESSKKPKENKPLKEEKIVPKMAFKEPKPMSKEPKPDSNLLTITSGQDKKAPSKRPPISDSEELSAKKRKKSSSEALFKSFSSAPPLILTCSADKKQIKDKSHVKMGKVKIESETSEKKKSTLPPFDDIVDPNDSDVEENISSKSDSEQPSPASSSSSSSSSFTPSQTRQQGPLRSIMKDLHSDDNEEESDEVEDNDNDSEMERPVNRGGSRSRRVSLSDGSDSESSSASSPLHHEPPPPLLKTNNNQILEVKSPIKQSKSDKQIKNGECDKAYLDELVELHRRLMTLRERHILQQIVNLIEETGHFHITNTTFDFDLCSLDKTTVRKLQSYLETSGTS
Ecoli rRNA inh OD600: second read-out of Ecoli rRNA inh, no call of its own (marks repeat the call); OD600 change, %; measured here: OD600 growth;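 optical density of the mix in the first replicate; 0 = DMSO median and -100 = no signal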
Ecoli rRNA inh RFP: further read-out of Ecoli rRNA inh, marked with its call; RFP signal change, %; measured here: RFP humanized mutant strains;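 first replicate; 0 = DMSO median and -100 = no signal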
* marks the source's active call; other numbers are inactive results; ? = inconclusive; / = no result given; & = joins results of further samples. Only part of the results is shown, so the mix of outcomes need not match the whole.

SMILES	Vif TR-FRET	T cruzi inh	Calb FLC	Bfl-1 A1 inh	Ecoli rRNA inh	Ecoli rRNA inh OD600	Ecoli rRNA inh RFP	RanGTP-Imp inh	Beta apoptosis	AF4-AF9 inh
Cc1ccc(S(=O)(=O)N2CCN(S(=O)(=O)N3CCCCC3)CC2)cc1C	/	-3.3	-20.5	1.4	2.9	6.4	-0.8	3.4	-2.0	0.9
COc1ccc(-c2cc(=O)oc3cc(OCC(=O)N(C)C)ccc23)cc1	/	-13.8	3.2	-1.1	-4.0	-10.4	1.3	1.4	-3.7	-1.8
Cc1c(C)n(C)c2ccc(C(=O)NCCN3CCOCC3)cc12	/	-6.1	0.9	1.1	2.7	9.3	20.5	-3.4	-1.6	1.9
Cc1cccc(OCC(=O)N(Cc2ccc(N(C)C)cc2)C2CCS(=O)(=O)C2)c1 (stereo not given)	5.1%	-4.2	4.6	-0.2	5.9	2.6	-1.2	-2.2	-1.3	/
O=C(CN1CCN(S(=O)(=O)c2ccccc2)CC1)NC(=O)NCc1ccco1	29.7%	-1.8	-2.9	-0.4	8.4	6.5	-3.3	1.4	-2.7	-4.7
O=C(c1cccnc1)N1N=C(C2CCCCC2)CC1(O)C(F)(F)F (stereo not given)	8.3%	10.3	-0.3	-0.6	11.1	12.6	-2.1	-0.1	1.7	-1.4
COC(=O)c1cc(Br)c(=O)n(-c2ccc(F)cc2)c1	0.0%	-16.5	4.0	0.1	/	/	/	1.8	-4.1	/
O=C(NC1CCCCC1)C(c1ccc(F)cc1)N(Cc1ccc2c(c1)OCO2)C(=O)c1cnsn1 (stereo not given)	1.6%	32.4	-0.9	0.2	/	/	/	1.5	2.8	/
Cc1nc(-c2ccc(F)cc2)c(CC(=O)Nc2cc(S(=O)(=O)N3CCCCC3)ccc2C)s1	1.0%	10.2	-3.5	0.3	-6.1	-15.7	6.2	1.2	0.3	?
Cc1ccc(S(=O)(=O)Nc2ccc3c(c2)ncn3C(C)(C)C)cc1	2.0%	7.5	-9.2	0.1	/	/	/	2.7	3.0	/
Cc1ccc(NC(=O)CN(C)S(=O)(=O)c2ccc3c(c2)c(=O)n(C)c(=O)n3C)cc1	6.3%	4.8	0.5	0.0	0.6	3.1	-4.0	2.9	0.9	-2.5
CC1=CC(=O)C=CC1(C)C(Cl)(Cl)Cl (stereo not given)	-3.5%	-0.6	-20.5	0.0	/	/	/	3.0	-3.8	/
CC1=C(C(=O)OCc2ccccc2)C(c2cccc([N+](=O)[O-])c2)NC(=O)N1C (stereo not given)	/	7.4	9.7	0.2	-18.6	-18.0	0.3	-0.2	-0.9	3.4
C[C@H](NC(=O)c1ccc2ccccc2c1)C(=O)N1CCC2(CC1)NCCc1[nH]cnc12	2.0%	11.1	0.9	-0.4	3.0	1.6	-0.8	-3.2	-4.1	3.0
CCn1nnnc1SCC(=O)c1cc(OC)ccc1OC	-2.5%	-10.3	-5.3	0.3	/	/	/	-3.7	-7.9	/
CCN(Cc1ccccc1)C(=O)C(=O)c1cn(CC(=O)N2CCCC2)c2ccccc12	/	13.2	1.3	0.4	-3.1	14.2	5.8	-1.0	0.1	1.0
COc1cccc(CNC(=O)C2CCC(=O)N(C3CC3)C2)c1OC (stereo not given)	/	-0.1	0.0	/	-2.4	11.6	-2.9	1.2	/	-10.1
CC(C)NC(=O)C1CCN(C(=O)c2cc3sccc3n2Cc2ccc(F)cc2)CC1	-17.2%	-12.0	-16.4	0.9	/	/	/	0.0	25.7	/
O=C(NCC(=O)N1CC(O)CC1C(=O)N1CCCC1C(=O)OCc1ccccc1)OCc1ccccc1 (stereo not given)	2.2%	39.2	-7.4	-0.2	14.3	7.7	2.1	0.6	-6.1	-0.3
O=C(NCc1ccc(F)cc1)C1CCCN(S(=O)(=O)c2ccc(Br)s2)C1 (stereo not given)	/	0.7	0.9	-0.1	0.4	-26.9	-5.0	-2.7	-7.3	0.0
CC(C)(C)c1nnc2sc(SCC(=O)c3ccccc3)nn2c1=O	-3.6%	-13.5	-4.2	-0.2	/	/	/	5.2	-9.7	/
COc1ccccc1S(=O)(=O)Cc1ccc(C(=O)NCCCN2CCN(c3ccc(F)cc3)CC2)o1	6.6%	5.0	5.7	-0.2	-1.8	4.7	1.8	6.4	-5.3	13.5
O=C(CCNC(=O)c1ccccc1Cl)Nc1nnc(C2CC2)s1	?	-1.6	9.1	0.4	-2.2	-5.0	-1.6	-0.4	-6.5	-1.5
Cc1ccc(OCC(=O)NCCNC(=O)c2cnccn2)cc1	/	-5.0	8.7	0.0	5.5	1.4	1.5	2.7	-5.7	-6.7
COc1ccc2cc(C(N)=O)/c(=N\NC(=O)c3ccccc3)oc2c1	0.3%	-8.2	4.5	-5.1	4.3	26.1	0.8	14.2	4.3	-6.0

Looked up one by one from above:
SMILES	Vif TR-FRET	T cruzi inh	Calb FLC	Bfl-1 A1 inh	Ecoli rRNA inh	Ecoli rRNA inh OD600	Ecoli rRNA inh RFP	RanGTP-Imp inh	Beta apoptosis	AF4-AF9 inh
Cc1nc(-c2ccc(F)cc2)c(CC(=O)Nc2cc(S(=O)(=O)N3CCCCC3)ccc2C)s1	1.0%	10.2	-3.5	0.3	-6.1	-15.7	6.2	1.2	0.3	?
CC(C)NC(=O)C1CCN(C(=O)c2cc3sccc3n2Cc2ccc(F)cc2)CC1	-17.2%	-12.0	-16.4	0.9	/	/	/	0.0	25.7	/

Continued.
SMILES	Vif TR-FRET	T cruzi inh	Calb FLC	Bfl-1 A1 inh	Ecoli rRNA inh	Ecoli rRNA inh OD600	Ecoli rRNA inh RFP	RanGTP-Imp inh	Beta apoptosis	AF4-AF9 inh
O=C(NN1CCOCC1)C12CC3CC(CC(C3)C1)C2	1.2%	3.3	-0.5	0.8	/	/	/	2.8	-2.2	/
CCc1cc(=O)oc2c(C)c(OC(C)C(=O)NCCCn3ccnc3)ccc12 (stereo not given)	/	-2.2	-8.7	-0.3	6.4	1.0	-2.8	-0.2	-8.0	1.4
CN1C(=O)C2(Oc3ccccc3C3CC(c4ccccc4)=NN32)c2ccccc21 (stereo not given)	?	8.7	11.5	0.2	/	/	/	6.6	1.6	/
O=C(Nc1nnc(Cc2ccc(Cl)cc2)s1)c1cccnc1	/	-31.1	37.3	-0.4	-2.2	2.8	-2.5	?	-1.1	-0.2
O=C(c1ccc(S(=O)(=O)N2CCCCCC2)cc1)N1CCN(c2ccccn2)CC1	-5.4%	22.3	12.3	0.6	/	/	/	2.8	-1.0	/
c1ccc(-c2nc3c4ccccc4ccn3c2CN2CCCCC2)cc1	/	46.0	12.2	-0.6	-17.6	-17.1	-8.4	-2.2	13.9	-8.1
COc1ccc(NC(=O)C2CC(=O)n3ncnc3N2)cc1 (stereo not given)	-0.9%	0.7	-9.3	1.0	/	/	/	3.2	-6.6	/
CCN(CC(=O)Nc1ccc(NC(C)=O)cc1)C(=O)c1ccc2c(c1)S(=O)(=O)N=C1CCCCCN12	-3.0%	-7.2	-3.5	0.1	6.4	9.0	-0.9	3.5	-1.3	-5.3
COc1ccc(OC)c(Nc2nc3nonc3nc2N2CCCC(C)C2)c1 (stereo not given)	/	2.4	0.2	1.5	-9.4	-5.3	2.1	2.0	-10.1	-1.5
CC1CCCCC1NC(=O)CN1C(=O)NC(C)(c2cc(F)ccc2F)C1=O (stereo not given)	-3.3%	/	/	-0.5	/	/	/	/	-0.5	3.2
CCCCOc1ccc(CSc2nnc(C)n2N)cc1[N+](=O)[O-]	1.1%	11.5	5.3	1.2	9.1	0.6	-1.8	-2.4	-6.7	-9.3
Cc1nc(NNC(=O)c2ccc([N+](=O)[O-])cc2)cc(-c2ccccc2)n1	6.6%	-8.8	28.2	-1.1	20.1	14.8	1.4	1.5	/	3.2
O=C1/C(=C/c2ccco2)SC(=S)N1CCC(=O)N1CCCCC1CCO (stereo not given)	/	-1.4	28.0	-1.0	3.2	15.2	10.3	-0.6	-34.8	14.6
CCOC(=O)c1[nH]c2ccc(OC)cc2c1NS(=O)(=O)c1ccc(Cl)s1	-12.4%	0.6	-7.9	0.5	/	/	/	-1.1	0.6	/
CC(c1ccco1)N(C(=O)COc1ccccc1[N+](=O)[O-])c1ccccn1 (stereo not given)	23.5%	2.0	0.8	-0.3	/	/	/	3.3	-4.7	/
COCCN1Cc2cccc(C(=O)Nc3cccc(C)c3C)c2C1=O	4.7%	16.7	8.0	0.2	/	/	/	7.9	-3.9	/
Cn1c(N)c(C(=O)COC(=O)C2(c3ccc(Cl)cc3)CCCC2)c(=O)n(C)c1=O	-9.1%&-6.8%	23.7	-1.2	-0.1	/	/	/	2.4	2.2	/
O=[N+]([O-])c1cccc(-c2ccc3nnc(SCc4ccccn4)n3n2)c1	-15.6%	1.3	-3.6	-0.2	13.4	2.9	-0.6	1.9	-8.9	-2.9
N#C/C(=C\C=C\c1ccccc1[N+](=O)[O-])c1nc(-c2ccc3c(c2)OCO3)cs1	-1.2%	-12.9	-10.6	0.4	/	/	/	2.0	-0.8	/
COc1ccc(Cc2nnc(SCC(=O)c3ccccc3)o2)cc1	-2.0%	-6.9	1.3	-1.0	/	/	/	1.8	-9.2	/
CCc1ccc2c(c1)C1(SC(NC(C)=O)=NN1C(C)=O)C(=O)N2C(C)C (stereo not given)	-3.4%	-9.3	-2.0	-1.1	/	/	/	0.9	/	/
COc1ccc(C(=O)OCCNC(=O)c2c(Cl)nc3ccccn23)cc1	-2.6%	-1.0	-6.9	0.3	/	/	/	4.3	-0.8	/
Cc1ccc(S(=O)(=O)NC(CC(C)C)C(=O)Oc2ccc3c4c(c(=O)oc3c2)CCC4)cc1 (stereo not given)	-1.9%	-14.3	-6.9	-0.4	-0.5	1.3	4.3	-4.5	-1.3	4.1
C=C(C)Cc1c(C)nc(-c2ccccc2)[nH]c1=O	20.6%	-4.9	-23.5	-0.3	/	/	/	-0.2	-3.6	/
CC(Oc1ccccc1F)c1nnc(SCC(=O)c2c(N)n(C3CC3)c(=O)[nH]c2=O)o1 (stereo not given)	-8.3%	/	/	0.1	7.4	12.8	0.2	/	2.5	0.2
CC(C)(C)c1ccc(-c2nc3cc(N)ccc3o2)cc1	5.2%	-7.6	0.6	-2.6	-0.4	-3.0	-4.5	9.4	3.5	-1.6
